Screens deposited in PubChem by several laboratories.
Rce1 inhib: inhibitors of yeast Ras-converting enzyme | yeast membranes, quenched prenylated peptide cleavage fluorescence | Q03530 | calls only | 290,000 tested, 0.27% active;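 active = fall in fluorescence gain of 50% or more versus controls, with final raw signal at or below 3038400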;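 also: plate controls were neutral control wells for no effect and wells lacking membranes for full effect; tested at 10 µM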
MT1-MMP act inh: blocks activation of human MT1-MMP. P50281. HT1080 RFP-PRO-GFP cells, GFP/RFP ratio fluorescence, overnight; percent of plate control window, DMSO zero. GFP/RFP ratio change, % at 20 µM. 360,000 tested, 0.061% active;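 active = GFP/RFP ratio change of at least 30% with cell ATP level not reduced by more than half and red fluorescence within 50% of control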; also: strong numbers were not always called active
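Test system: HT1080 cells expressing an RFP-PRO-GFP fluorescent reporter construct / Compound dosing: single-point 20 µM compound, 1% DMSO / Schedule: cells overnight before dosing, compound overnight, 37 °C, 5% CO2 / Evaluation: GFP/RFP fluorescence ratio / Control set: DMSO and RFP-L50D-GFP cell wells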
Yeast UUG start: modulators of start codon recognition fidelity in yeast; 350,000 tested, 0.13% active; AID 602363; activity score, % at 18.7 µM; S. cerevisiae UUG-firefly luciferase reporter, luminescence/redox ratio;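 active = replicate mean at a twofold rise or more, about +100% in these data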;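 also: firefly luciferase made from a UUG start codon reports start codon fidelity; reporter light over untreated wells divided by growth signal over untreated wells; some hits fall short of that in this replicate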
eIF4H FP inh: inhibitors of RNA binding by human eIF4H | Q15056 | eIF4H fluorescence polarization binding assay | inhibition, % at 35 µM | 290,000 tested, 0.94% active | AID 2012;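 active = 50% or more with normal probe brightness, or confirmed in later tests; about a fifth of its hits are not listed in these tables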;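 also: calls also rest on retests at 20 µM and on dose response follow-up; 0% = protein and probe with vehicle and 100% = probe without protein; strong numbers were not always called active; many hits fall short of the cut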
PABP FP inh: blocks human PABP binding to poly(A) RNA | inhibition, % at 35 µM | AID 2014 | 290,000 tested, 1% active | P11940 | fluorescence polarization;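 active = 50% or more with normal probe brightness, or confirmed in later tests; about a fifth of its hits are not listed in these tables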;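 also: calls also rest on retests at 20 µM and on dose response follow-up; controls were probe without protein and protein plus probe with vehicle; some compounds called inactive have numbers as strong as hits; many hits fall short of the cut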
Target sequence (P11940 whole entry, looked up): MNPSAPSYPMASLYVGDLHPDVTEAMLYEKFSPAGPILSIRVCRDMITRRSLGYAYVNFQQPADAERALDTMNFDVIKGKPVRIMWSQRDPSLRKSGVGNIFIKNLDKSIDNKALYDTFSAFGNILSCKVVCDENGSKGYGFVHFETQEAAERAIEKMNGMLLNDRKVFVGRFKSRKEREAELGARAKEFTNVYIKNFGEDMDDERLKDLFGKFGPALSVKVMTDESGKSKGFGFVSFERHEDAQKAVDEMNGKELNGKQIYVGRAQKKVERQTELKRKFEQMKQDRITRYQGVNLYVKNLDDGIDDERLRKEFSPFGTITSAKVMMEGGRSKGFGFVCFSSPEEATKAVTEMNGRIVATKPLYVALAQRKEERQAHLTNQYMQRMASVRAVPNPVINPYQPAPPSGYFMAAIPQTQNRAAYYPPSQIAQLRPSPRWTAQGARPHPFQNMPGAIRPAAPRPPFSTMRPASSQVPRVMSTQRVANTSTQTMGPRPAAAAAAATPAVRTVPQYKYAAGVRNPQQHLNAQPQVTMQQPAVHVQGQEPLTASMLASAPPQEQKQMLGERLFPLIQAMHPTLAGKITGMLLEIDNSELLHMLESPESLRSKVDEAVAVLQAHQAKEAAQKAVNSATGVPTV
HIV Env fusion: inhibitors of HIV Env-mediated cell fusion. 360,000 tested, 1.1% active. inhibition, % at 12.3 µM. HeLa-JRFL Env/CEM21 cell fusion, luciferase;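 active = mean replicate inhibition score of at least 50 and every replicate individually at or above 50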;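 also: 0% = plate neutral controls and 100% = maraviroc near 300 nM; one replicate is shown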
CSC inhib: cancer stem cell inhibition; 300,000 tested, 1.1% active; inhibition, % at 7.5 µM; cancer stem cell-like cells viability, luminescence;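 active = mean at 75% or more and at least half the replicates too; tested in HMLE shEcad cells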;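 also: 0% = median of negative and 100% = median of positive control wells; the first replicate is given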
eIF4H FP inh retest: further read-out of eIF4H FP inh, marked with its call; inhibition, %; compound at 20 µM; confirmation average;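 mean of two retest wells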
PABP FP inh retest: recorded beside PABP FP inh, whose call it bears; inhibition, %; compound at 20 µM; confirmation repeats;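 mean of two retest wells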
MT1-MMP act inh RFP: recorded beside MT1-MMP act inh, whose call it bears; RFP signal change, %; measured here: RFP expression control read;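 0 = vehicle wells; hits needed this value within 50% of zero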
* hit, by the source's call; i = inactive; . = no result given; & = joins results of further samples. Some of the compounds tested; count on the stated rates, not on these rows.

SMILES | Rce1 inhib | MT1-MMP act inh | MT1-MMP act inh RFP | Yeast UUG start | eIF4H FP inh | PABP FP inh | HIV Env fusion | CSC inhib | others
COc1ccc(NS(=O)(=O)c2ccc(NS(=O)(=O)c3ccc(C)cc3)cc2)nn1 | i | 1 | -1 | 5 | 1 | 10 | . | 16
CC12CCC(C/C1=N/OC(=O)c1cccc([N+](=O)[O-])c1)C2(C)C (stereo not drawn) | i | 2 | 4 | 13 | 0 | 15 | 5 | 3
Cc1ccc(F)c(NC(=O)c2ccc(Cn3cc(Cl)cn3)cc2)c1 | i | 5 | -10 | . | 30 | -4 | 25 | 32
COc1ccc(C(=O)Nc2cc3c(cc2C#N)OCO3)cc1S(=O)(=O)NCc1ccco1 | i | 4 | 7 | 2 | 0 | -12 | -29 | 7
COc1ccc(C2CN=NC23CCCc2ccccc2C3=O)cc1 (stereo not drawn) | i | 0 | -14 | -9 | 0 | -1 | -6 | 15
CC1=C(C(=O)c2ccccc2)C(c2cn(-c3ccccc3)nc2-c2ccc(Cl)cc2)NC(=S)N1 (stereo not drawn) | i | -22 | -19 | -15 | -16 | 0 | 23 | -12
CCCc1cc(=O)oc2cc(C)cc(OC(C)C(=O)NCC(O)c3ccccc3)c12 (stereo not drawn) | i | 0 | 4 | -7 | -12 | 4 | 2 | -12
CCOC(=O)[C@@H]1[C@H]2COc3cc(OC)ccc3[C@@H]2N2C(=O)N(c3ccc(Cl)cc3)C(=O)[C@@]12C | i | -2 | -2 | -2 | -28 | -5 | 22 | -1
CC(=O)N=C1C=CC(=CN(O)C(C)(C)Cc2ccccc2)C=C1 | i | -1 | 1 | -16 | . | . | 3 | -9
COc1ccc(C2c3ccc4ccccc4c3Oc3ncn(CCCO)c(=N)c32)cc1OC (stereo not drawn) | i | 1 | -2 | . | -3 | -9 | -3 | 49

The list goes on, overlapping the part above by seven compounds.
SMILES | Rce1 inhib | MT1-MMP act inh | MT1-MMP act inh RFP | Yeast UUG start | eIF4H FP inh | PABP FP inh | HIV Env fusion | CSC inhib | others
COc1ccc(C(=O)Nc2cc3c(cc2C#N)OCO3)cc1S(=O)(=O)NCc1ccco1 | i | 4 | 7 | 2 | 0 | -12 | -29 | 7
COc1ccc(C2CN=NC23CCCc2ccccc2C3=O)cc1 (stereo not drawn) | i | 0 | -14 | -9 | 0 | -1 | -6 | 15
CC1=C(C(=O)c2ccccc2)C(c2cn(-c3ccccc3)nc2-c2ccc(Cl)cc2)NC(=S)N1 (stereo not drawn) | i | -22 | -19 | -15 | -16 | 0 | 23 | -12
CCCc1cc(=O)oc2cc(C)cc(OC(C)C(=O)NCC(O)c3ccccc3)c12 (stereo not drawn) | i | 0 | 4 | -7 | -12 | 4 | 2 | -12
CCOC(=O)[C@@H]1[C@H]2COc3cc(OC)ccc3[C@@H]2N2C(=O)N(c3ccc(Cl)cc3)C(=O)[C@@]12C | i | -2 | -2 | -2 | -28 | -5 | 22 | -1
CC(=O)N=C1C=CC(=CN(O)C(C)(C)Cc2ccccc2)C=C1 | i | -1 | 1 | -16 | . | . | 3 | -9
COc1ccc(C2c3ccc4ccccc4c3Oc3ncn(CCCO)c(=N)c32)cc1OC (stereo not drawn) | i | 1 | -2 | . | -3 | -9 | -3 | 49
O=C(NCc1cccs1)c1cc2ccccc2o1 | i | 4 | 7 | -12 | -2 | 6 | -104 | 1
O=C(c1ccc(CN2CCc3ccccc3C2)cc1)N1CCCCC1 | i | 3 | -1 | -6 | 3 | 1 | . | -8
N/C(=N\OC(=O)c1ccccc1)c1cccnc1 | i | 2 | -2 | . | -1 | -4 | -36 | 10
COc1ccc(C(=O)N2CCN(Cc3cc(OC)ccc3OC)CC2)cc1 | i | 0 | 0 | -2 | 1 | 7 | 3 | -13
Cc1cc(Nc2ccccc2)n(C(=O)c2ccc(Cl)cc2)n1 | i | 3 | 2 | -7 | -10 | -6 | -58 | 5
Cc1ccc(S(=O)(=O)n2nnc3ccccc32)c(C)c1C | i | -5 | -3 | . | -2 | -10 | 4 | -8
Cc1ccc(-c2nc(Cl)nc3ccccc23)cc1 | i | -3 | -3 | . | -4 | -10 | 14 | -13
O=S(=O)(Nn1cnnc1)c1ccc2ccccc2c1 | i | 0 | -1 | -18 | 2 | 10 | 13 | 13
COc1cccc(NC(=O)CNS(=O)(=O)c2ccc3nc(C)sc3c2)c1 | i | 4 | 5 | . | -9 | 2 | . | 7
CN(Cc1cc([N+](=O)[O-])ccc1Cl)C(=O)C[n+]1ccccc1 | i | -2 | 1 | 1 | -9 | 5 | 10 | -12
CN(Cc1cnccn1)C(=O)c1cc(COc2cccc(C(F)(F)F)c2)on1 | i | 0 | -1 | -17 | -5 | -7 | . | .
CCOC(=O)N1CCC(N2C(=O)c3ccc(C(=O)Nc4ccc(OC)c(OC)c4)cc3C2=O)CC1 | i | -4 | -2 | -6 | -10 | -8 | -2 | 14
CCOc1cccc(/C=N/N2CCN(c3ccc(Cl)cc3)CC2)c1O | i | 2 | -11 | -6 | -6 | 6 | 36 | 18
CCOC(=O)c1ccc(-c2nnc(-c3ccc(Cl)cc3Cl)o2)cc1 | i | 0 | 1 | -5 | 1 | -9 | -182 | 0
CCCn1c(CCc2ccccc2)nnc1SCC(=O)N1CCCC1 | i | -3 | 5 | -10 | -4 | 2 | -27 | -9
COC(=O)[C@@H](Cc1ccccc1)NC(=O)NCCc1c[nH]c2ccccc12 | i | 2 | 2 | -12 | 4 | -3 | -5 | -4
COC(=O)C1CCN(C(=O)/C=C/c2ccc(OC)cc2)CC1 | i | -13 | -3 | 45 | -8 | -7 | -158 | 8
Cc1nc2nc(C)c(NS(=O)(=O)c3ccc(CC(C)C)cc3)c(=O)n2[nH]1 | i | 3 | -1 | -6 | -1 | 8 | -2 | .
CC(C)Oc1ccc(C(=O)N2CCN(C(=O)c3ccco3)CC2)cc1 | i | -2 | 1 | -10 | 8 | -6 | -4 | 15
O=C(NCC1CC1)c1csc(COCCO)n1 | . | 0 | -1 | -4 | . | . | 5 | .

Next part (two carried over from the part before).
SMILES | Rce1 inhib | MT1-MMP act inh | MT1-MMP act inh RFP | Yeast UUG start | eIF4H FP inh | PABP FP inh | HIV Env fusion | CSC inhib | others
CC(C)Oc1ccc(C(=O)N2CCN(C(=O)c3ccco3)CC2)cc1 | i | -2 | 1 | -10 | 8 | -6 | -4 | 15
O=C(NCC1CC1)c1csc(COCCO)n1 | . | 0 | -1 | -4 | . | . | 5 | .
COc1ccc(CNCCCSc2ncccn2)c(OC)c1 | i | 1 | -2 | -13 | 18 | 58 | 1 | -4 | eIF4H FP inh retest=22;PABP FP inh retest=31
O=C(/C=C/c1ccc(O)cc1)c1ccc(NC2=C(N3CCCCC3)C(=O)c3ccccc3C2=O)cc1 | i | -38 | -16 | -23 | -8 | 2 | . | 90*
CCN(c1cccc(C)c1)S(=O)(=O)c1ccc(-c2ccc(=O)[nH]n2)o1 | i | 2 | -1 | -10 | 4 | 9 | 3 | 21
CCCS(=O)(=O)NCCc1cc2ccc(C)cc2[nH]c1=O | i | 1 | 4 | -18 | -6 | -12 | -31 | -8
Cc1ccc(C)c(NS(=O)(=O)c2c(C)nc3sccn3c2=O)c1 | i | 6 | 1 | -11 | 2 | -7 | -35 | -11
CC(/C=C/C=C/c1ccccc1)=N/NC(=O)CNc1ccc(C)cc1 | i | 0 | -3 | -8 | 15 | 4 | . | -7
CSCC[C@H](NC(=O)C1CCN(S(=O)(=O)c2ccc(C)cc2)CC1)C(=O)NCc1ccco1 | i | 2 | 2 | 15 | 9 | 2 | -77 | -13
CC(/C=N\NC(=O)c1cccnc1)c1ccccc1 (stereo not drawn) | i | 5 | 4 | . | . | . | . | -9
S=C(Nc1ccc2c(c1)OCO2)NC1CCN(Cc2ccccc2)CC1 | i | 1 | 4 | -17 | -1 | -4 | -4 | 3
CCOC(=O)CCCn1c(C)nc(=O)c(-c2ccccc2)c1C | i | -1 | 3 | -5 | -10 | -9 | . | 12
Brc1c(NC2=NCCN2)ccc2nccnc12 | i | . | . | . | -1 | 0 | . | .
Cc1n[nH]c(C)c1CCOc1ccc(C(C)C)cc1 | i | 1 | -15 | . | 4 | -8 | 32 | .
CCCCSc1nsc(NC(C)=O)n1 | i | -3 | -1 | -10 | 0 | -1 | -59 | -10
CC1CN(C(=O)c2ccccc2Oc2ccccc2)CC(C)O1 (stereo not drawn) | i | -4 | 1 | . | -12 | -6 | -8 | -15
CCC(C)c1ccccc1NC(=O)COC(=O)c1ccc2[nH]c3c(c2c1)CCCC3 (stereo not drawn) | i | -11 | -16 | . | 0 | 4 | 10 | 107*
CC(=O)NS(=O)(=O)c1ccc(N=NN2CCOCC2)cc1 | i | -3 | 5 | -17 | 9 | 2 | 10 | 3
CC(=O)c1c(C(C)=O)c(C)n(NC(=O)c2ccc(Cl)cc2)c1C | i | 5 | 2 | 10 | 1 | 0 | -25 | -3
CC1CCCC(=C\c2ccccc2)/C1=N/O (stereo not drawn) | i | -2 | -2 | . | 0 | 4 | . | -12
Nc1ccc2ccccc2c1C(=O)c1ccccc1 | . | 0 | 4 | -13 | . | . | 27 | .
c1cc2c3c(cccc3c1)NC1(CCC3(CC1)Nc1cccc4cccc(c14)N3)N2 | i | 4 | -7 | -12 | 22 | 5 | 24 | 11
O=C1c2ccccc2C(=O)C12OC2c1cccc2ccccc12 (stereo not drawn) | i | 4 | 7 | . | -3 | -7 | -33 | -13
COc1ccc2ccccc2c1/C=N/NC(=O)c1nnn(-c2nonc2N)c1C(C)C | i | 10 | 1 | -17 | -9 | -1 | 5 | 29
O=C(OCc1cc(=O)n2ccsc2n1)c1ccccc1NCCO | . | -6 | 6 | -2 | . | . | -6 | -11
Cc1ccccc1NC(=O)CSc1[nH]c(=O)cc(C)c1C#N | i | 9 | 5 | -26 | 22* | 52* | 5 | 6 | eIF4H FP inh retest=84*;PABP FP inh retest=77*
COc1cc(-c2cn[nH]c2N)cc(OC)c1OC | i | 10 | 1 | -32 | 3 | -5 | . | -9
O=C(O)CCC(=O)Nc1nnc(C(F)(F)F)s1 | . | 3 | 3 | -4 | -5 | 5 | . | -8
C=CCn1c(SCC(=O)NC2(C#N)CCCCC2)nnc1-c1ccncc1 | i | -2 | -1 | -4 | . | . | 5 | 9
CN(C)CCC=C1c2ccccc2CCc2ccccc21 | i | -6 | -8 | 1&-9 | -10 | -6 | -11 | .
Cc1sc2ncnc(OCC(=O)NCc3cccs3)c2c1C | i | 1 | 1 | . | -6 | 1 | . | -7
CC(C)(C)C(=O)NCCn1ccc2ccccc21 | i | 1 | 4 | -6 | 2 | 3 | -225 | 4
N=c1sccn1CC(=O)Nc1ccccc1Oc1ccccc1 | i | 1 | 1 | -16 | -6 | 3 | . | -1
Cc1ccc(C)c(-n2c(Cc3cc(=O)[nH]c(=O)[nH]3)nnc2SCC(=O)NCC2CCCO2)c1 (stereo not drawn) | . | 1 | 1 | -5 | 3 | 3 | -38 | 0
CC1CCN(C(=O)COC(=O)[C@H](C)NS(=O)(=O)/C=C/c2ccccc2)CC1 | i | -1 | 2 | 7 | -10 | -5 | . | -6
Cc1ccc(C(C)(C)C)cc1S(=O)(=O)NC(=O)c1ccccc1 | i | 6 | 8 | . | -4 | -3 | 16 | -4
Cc1c(C(=O)N2CC(C)OC(C)C2)sc2nc(-c3ccc(F)cc3)cn12 (stereo not drawn) | i | 10 | -6 | -18 | 22 | -1 | 25 | -1
